SARS PLpro yeast – SARS-CoV PLP inhibition in yeast | Potency, µM (series often up to 32.9 µM), without a hit: at the top dose activity, positive = growth rescue | AID 485353 | 330,000 compounds, 0.19% hits | S. cerevisiae expressing SARS-CoV PLpro, growth rescue; control for the full effect not named in the record; active means well fitted rising curve with a large enough effect; inconclusive means small, poorly fitted or top-dose-only effect; inactive means no such curve, though single readings can be large or run the other way; also: 0% is about no effect; nearly all actives have a fitted effect of over 55% in size; growth read by luminescence after 48 h
MARV entry inh – Marburg virus entry inhibition | Marburg virus pseudotyped entry inhibition, cell reporter; control for the full effect not named in the record; about a third of the inactives were read at about 46 µM | Potency, µM (highest dose often 37.8 µM), for the others: at the highest dose activity change, negative = inhibition, usual class: inhibitors | 300,000 compounds, 1.8% hits | AID 540276; active = well fitted inhibition curve with a large enough effect; inconclusive = small, poorly fitted or top-dose-only effect, or effect the other way; inactive = flat fitted curve, though single readings scatter; tested in HEK293 cells; about a fifth of its hits are not listed in these tables; also: % is scaled to controls: 0 for no effect and ±100 for the full control effect; luciferase read-out
NS1 inh – blocks influenza NS1 protein function | S. cerevisiae slowed by influenza A NS1, growth recovery by OD600 | Potency, µM (top dose mostly 46.1 µM), for inactives: at the highest dose activity, positive = more growth | 270,000 compounds, 0.4% hits | AID 2326; active means well fitted rising curve with a large enough effect; inconclusive means small, poorly fitted or top-dose-only effect; inactive means no such curve, though single readings can be large or run the other way; also: nearly all actives have a fitted effect of over 50% in size
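Read-out: OD600 growth recovery of NS1-expressing budding yeast. Cells grown overnight at 30C in -URA glucose medium, washed, resuspended and diluted 1:100 in 2% galactose assay medium, pH 6.0. Same strain lacking NS1 served as positive control.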
Cruzain Triton – cruzain (T. cruzi) inhibition with detergent. AID 1478. Potency, µM, without a hit: max response, negative = inhibition, hits mostly inhibitors. 200,000 compounds, 0.43% hits. P25779. purified cruzain, Z-FR-AMC fluorescence, 0.01% Triton;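 also: plate controls were neutral wells for no effect and buffer without enzyme for full effect; nearly all actives have a fitted effect of over 40% in size; top concentration of the series not given in the record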
Target sequence (P25779 123-467 limits assumed): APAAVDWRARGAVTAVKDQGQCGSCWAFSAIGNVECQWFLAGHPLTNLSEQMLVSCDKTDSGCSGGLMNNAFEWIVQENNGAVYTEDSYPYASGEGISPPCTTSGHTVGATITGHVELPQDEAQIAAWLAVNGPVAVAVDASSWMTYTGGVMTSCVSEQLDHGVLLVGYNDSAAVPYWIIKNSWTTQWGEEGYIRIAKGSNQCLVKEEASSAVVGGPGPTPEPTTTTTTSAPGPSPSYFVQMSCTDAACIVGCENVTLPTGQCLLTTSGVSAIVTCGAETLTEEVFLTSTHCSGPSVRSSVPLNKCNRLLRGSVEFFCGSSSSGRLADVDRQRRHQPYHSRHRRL
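Detergent-containing run (0.01% Triton X-100) in acetate buffer pH 5.5 with 5 mM DTT: enzyme at 1.5 nM final, 15 min compound preincubation at room temperature, then 2 uM Z-FR-AMC substrate. Activity taken as 60 s fluorescence increase at 360/450 nm.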
2A StopGo – FMDV 2A StopGo reporter, luciferase signal | human cells with a luciferase reporter of 2A StopGo recoding; control for the full effect not named in the record | Potency, µM (highest dose often 57.9 µM), for inactives: at the highest dose signal change, negative = less light | 410,000 compounds, 1.2% hits | AID 1159524; active = well fitted falling curve with a large enough effect; inconclusive = small, poorly fitted or top-dose-only effect; inactive = no such curve, though single readings can be large or run the other way; tested in HEK293T cells; also: % is scaled to controls: 0 for no effect and ±100 for the full control effect; nearly all actives have a fitted effect of over 45% in size; luciferase light after 4 h
RE007 growth inh – less growth of the S. pombe RE007 Vpr strain | Potency, µM (top dose mostly 92.2 µM), without a hit: top-dose activity change, negative = less growth | S. pombe RE007 Vpr strain, BacTiter-Glo ATP luminescence, 24 h; control for the full effect not named in the record | 360,000 compounds, 0.21% hits | AID 651644; active = well fitted falling curve with a large enough effect; inconclusive = small, poorly fitted or top-dose-only effect; inactive = no such curve, though single readings can be large or run the other way;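 also: % is scaled to controls: 0 for no effect and ±100 for the full control effect; nearly all actives have a fitted effect of over 50% in size; the assay follows cell death caused by Vpr and the record does not say whether a fall means rescue or toxicity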
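Fission yeast RE007 carrying one integrated HIV-1 vpr copy, seeded at OD 0.01 in PMG+AL medium with 23 nL pinned compound. Grown 24 h at 30 degrees; viability read by BacTiter-Glo luminescence after 5 min.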
Cruzain inh noDet – blocks cruzain activity in detergent-free assay. purified cruzain, Z-FR-AMC fluorescence, no detergent. 200,000 compounds, 2.3% hits. P25779. AID 1476. Potency, µM, without a hit: max response, negative = inhibition, most hits filed as inhibitors;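 also: plate controls were enzyme without inhibitor for no effect and buffer without enzyme for full effect; nearly all actives have a fitted effect of over 40% in size; top concentration of the series not given in the record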
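Detergent-free condition (0.00005% Triton X-100) in acetate buffer pH 5.5 with DTT. 1.5 nM enzyme and compound were pre-mixed 15 min, then 2 uM Z-FR-AMC substrate added; reaction progress from fluorescence change between first and third reads (60 s).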
LASV entry inh – Lassa virus entry inhibition; Lassa virus pseudotype entry inhibition, cell reporter; control for the full effect not named in the record; Potency, µM (highest dose often 37.9 µM), without a hit: at the top dose activity change, negative = inhibition, actives largely listed as inhibitors; 300,000 compounds, 1.2% hits; active means well fitted inhibition curve with a large enough effect; inconclusive means small, poorly fitted or top-dose-only effect, or effect the other way; inactive means flat fitted curve, though single readings scatter; tested in HEK293 cells; also: % is scaled to controls: 0 for no effect and ±100 for the full control effect; nearly all actives have a fitted effect of over 50% in size; luciferase read-out
* hit, by the source's call; & = joins results of further samples; [ ] = dose if it differs, or a comment. Unless noted, calls follow the shape of the dose curve; as a rule, active = well fitted curve in the direction sought with a large enough effect; inconclusive = small, poorly fitted or top-dose-only effect, or another doubt; inactive = no such curve, though single readings can be large; an effect the other way counts as inactive or inconclusive. Potency is read from the fitted curve at half-maximal effect.

Results for CCN(Cc1ccccc1)C(=O)CCS(=O)(=O)c1ccc2c(c1)oc(=O)n2C ?
SARS PLpro yeast: 1%; MARV entry inh: 3%&3%[46.1 µM]; NS1 inh: -13%; Cruzain Triton: 2.8%; 2A StopGo: 1%&-19%; RE007 growth inh: -6%; Cruzain inh noDet: -8%; LASV entry inh: inconclusive

Results for CCOc1ccc(NC(=O)N2CCC(NC(=O)C(Cc3ccccc3OC)NC(C)=O)CC2)cc1 (stereo unspecified) ?
SARS PLpro yeast: -3%; MARV entry inh: 2%[46.1 µM]; NS1 inh: 6%; 2A StopGo: -12%; RE007 growth inh: 6%; LASV entry inh: 6%

What do the screens show for `CC(=O)N1C(=O)C2(Nc3ccccc3N2)c2ccccc21`?
MARV entry inh: 9%[46.1 µM]; NS1 inh: -3%; Cruzain Triton: 7.0%; 2A StopGo: -25%; RE007 growth inh: 16%; Cruzain inh noDet: 4%; LASV entry inh: -3%

Results for CCN(CCCNC(=O)CCCn1c(=O)[nH]c2ccccc2c1=O)c1cccc(C)c1 ?
SARS PLpro yeast: 0%; MARV entry inh: 4%; NS1 inh: -16%; Cruzain Triton: 1.1%; 2A StopGo: 0%; RE007 growth inh: -4%; Cruzain inh noDet: 5%; LASV entry inh: -19%

Results for Cc1cc(N2C(=O)C(O)=C(C(=O)c3cc4ccccc4o3)C2c2cccc(Cl)c2)no1 (stereo unspecified) ?
SARS PLpro yeast: -4%; MARV entry inh: -7%[46.1 µM]; NS1 inh: 25%; 2A StopGo: 0%; RE007 growth inh: -6%; LASV entry inh: -20%

Results for O=C(N/N=C1\CCCc2ccccc21)C(O)c1ccccc1 (stereo unspecified) ?
SARS PLpro yeast: -2%; MARV entry inh: 10%; NS1 inh: 7%; Cruzain Triton: 5.9%; RE007 growth inh: 9%; Cruzain inh noDet: -1%; LASV entry inh: 1%

What do the screens show for `Cc1cc(C)cc(Nc2ccc([N+](=O)[O-])nc2[N+](=O)[O-])c1`?
SARS PLpro yeast: 2%; MARV entry inh: 15%; NS1 inh: 5%; Cruzain Triton: 0.9%; RE007 growth inh: 0%; Cruzain inh noDet: -5%; LASV entry inh: inconclusive

How did COc1ccc(-c2nc(CS(=O)(=O)CC(=O)NCc3cccc(F)c3)c(C)o2)cc1 do in these assays?
SARS PLpro yeast: 8%; NS1 inh: 21%; 2A StopGo: -20%; RE007 growth inh: 6%

How did O=C(NCc1ccccc1)c1cccc(NC(=O)N2CCSc3ncccc32)c1 do in these assays?
Cruzain Triton: -14%; 2A StopGo: -20%; Cruzain inh noDet: -4%; LASV entry inh: -8%[46.1 µM]

What do the screens show for `Cc1cc(-c2nn(-c3ccccc3F)cc2CNCCc2cnc[nH]2)c(C)s1`?
SARS PLpro yeast: 1%; NS1 inh: 1%; 2A StopGo: -20%; RE007 growth inh: 16%

How did O=C(Nc1ccc(Br)c2ccccc12)c1ccc2ccccc2c1O do in these assays?
SARS PLpro yeast: -12%; NS1 inh: -64%; 2A StopGo: inconclusive; RE007 growth inh: 10%

Results for CCOC(=O)C1=C(CC)Nc2ccccc2N=C1NC(=O)Cn1cnc2ccccc2c1=O ?
SARS PLpro yeast: 2%; MARV entry inh: -12%; NS1 inh: 3%; Cruzain Triton: 3.4%; RE007 growth inh: -13%; Cruzain inh noDet: -12%; LASV entry inh: 10%

How did Cc1cc(C)cc(NC(=S)N=Nc2c(O)n(C)c3ccc(S(=O)(=O)N4CCOCC4)cc23)c1 do in these assays?
SARS PLpro yeast: 20%; MARV entry inh: inconclusive; NS1 inh: 12%; Cruzain Triton: -3.0%; 2A StopGo: 0%; RE007 growth inh: 24%; Cruzain inh noDet: 1%; LASV entry inh: -10%

How did COc1ccc2cc3cc(C(=O)NCCN4CCN(c5ccccc5F)CC4)oc3nc2c1 do in these assays?
SARS PLpro yeast: 4%; MARV entry inh: 13µM*; NS1 inh: -41%; Cruzain Triton: inconclusive; 2A StopGo: 18µM*; RE007 growth inh: -26%; Cruzain inh noDet: 2%; LASV entry inh: inconclusive

What do the screens show for `C=CCCC(=O)Nc1nc(C)c(-c2csc(Nc3cc(Cl)ccc3OC)n2)s1`?
SARS PLpro yeast: -1%; NS1 inh: 28%; Cruzain Triton: -4.4%; 2A StopGo: -25%; RE007 growth inh: -12%; Cruzain inh noDet: 16µM*

What do the screens show for `Cc1nn(C(C)c2n[nH]c(=S)n2-c2cccc(Cl)c2)c(C)c1[N+](=O)[O-]` (stereo unspecified)?
SARS PLpro yeast: 2%; MARV entry inh: 30%; NS1 inh: -6%; Cruzain Triton: -1.1%; 2A StopGo: 0%; RE007 growth inh: 12%; Cruzain inh noDet: 2%; LASV entry inh: 3%

Results for CCC1CCCCN1S(=O)(=O)c1ccc(NC(=O)c2cc(=O)c3ccccc3o2)cc1 (stereo unspecified) ?
MARV entry inh: inconclusive; Cruzain Triton: -7.2%; 2A StopGo: 20µM*; Cruzain inh noDet: -6%; LASV entry inh: 12%[46.1 µM]

Results for CN(C)S(=O)(=O)n1cc(/C=C(\NC(=O)c2ccccc2Cl)C(=O)NCCN2CCOCC2)c2ccccc21 ?
SARS PLpro yeast: 1%; NS1 inh: -7%; 2A StopGo: -3%; RE007 growth inh: 0%

How did NS(=O)(=O)c1cccc(NC(=O)c2cc3ccccc3o2)c1 do in these assays?
SARS PLpro yeast: 1%; MARV entry inh: inconclusive; NS1 inh: -2%; 2A StopGo: 40%[activator]; RE007 growth inh: -16%; LASV entry inh: -40%

Results for COc1ccc(-n2c(Cc3cccn3C)nnc2SCC(=O)Nc2ccc(F)cc2F)cc1 ?
SARS PLpro yeast: 1%; MARV entry inh: -24%&-24%; NS1 inh: 3%; Cruzain Triton: -3.2%; 2A StopGo: 6%; RE007 growth inh: -1%; Cruzain inh noDet: 5%; LASV entry inh: 4%

How did Cc1ccc(C)c(OCc2nc3ccccc3[nH]2)c1 do in these assays?
SARS PLpro yeast: -6%; MARV entry inh: inconclusive; 2A StopGo: 24%; RE007 growth inh: inconclusive; LASV entry inh: -14%[46.1 µM]

What do the screens show for `COc1ccc(N2CCN(C(CNC(=O)c3ccco3)c3cccnc3)CC2)cc1` (stereo unspecified)?
SARS PLpro yeast: 4%; MARV entry inh: -12%; NS1 inh: -5%; Cruzain Triton: 1.7%; 2A StopGo: 0%; RE007 growth inh: -8%; Cruzain inh noDet: 7%; LASV entry inh: 2%

What do the screens show for `COc1ccc(S(=O)Cc2ccc(C(=O)NC3CC3)o2)cc1` (stereo unspecified)?
SARS PLpro yeast: 2%; NS1 inh: -4%; 2A StopGo: -6%; RE007 growth inh: 22%

Results for Cc1cc(=O)n(Cc2ccccc2)c2c1c(C)nn2C ?
Cruzain Triton: -8.1%; 2A StopGo: -9%; Cruzain inh noDet: inconclusive; LASV entry inh: 0%[46.1 µM]

What do the screens show for `CCOCCCNC(=O)c1cn(CC)c2ccc(S(=O)(=O)N3CCCC3)cc2c1=O`?
SARS PLpro yeast: 10%; NS1 inh: 7%; 2A StopGo: 3%; RE007 growth inh: -13%

How did CC(=O)Nc1nc(C)c(C(C)=O)s1 do in these assays?
SARS PLpro yeast: 4%; MARV entry inh: -5%; NS1 inh: -3%; Cruzain Triton: -1.6%; 2A StopGo: -7%; RE007 growth inh: 13%; Cruzain inh noDet: -4%; LASV entry inh: -3%

Results for CCC1(c2ccccc2)NC(=O)N(CC(=O)Nc2ccccc2N2CCCC2)C1=O (stereo unspecified) ?
SARS PLpro yeast: 4%; MARV entry inh: inconclusive; 2A StopGo: -20%; RE007 growth inh: -9%; LASV entry inh: 6%

Results for COc1ccccc1NS(=O)(=O)c1cc(NC(=O)CCC(=O)c2cccs2)ccc1Cl ?
SARS PLpro yeast: 5%; MARV entry inh: inconclusive; NS1 inh: inconclusive; Cruzain Triton: -6.6%; 2A StopGo: inconclusive; RE007 growth inh: 1%; Cruzain inh noDet: -15%; LASV entry inh: inconclusive

What do the screens show for `C=CCN(c1ccccc1)S(=O)(=O)c1ccc2c(c1)N(C(C)=O)CCO2`?
SARS PLpro yeast: 9%; NS1 inh: 0%; 2A StopGo: 3%; RE007 growth inh: 17%

Results for N/C(=N\OC(=O)CCCOc1ccccc1)c1ccc(Br)cc1 ?
SARS PLpro yeast: 2%; MARV entry inh: -2%; NS1 inh: -18%; Cruzain Triton: -2.5%; 2A StopGo: -14%; RE007 growth inh: -13%; Cruzain inh noDet: -1%; LASV entry inh: -11%

Results for Fc1ccccc1C(NCCc1ccc(Cl)cc1)c1nnc(-c2ccccc2)o1 (stereo unspecified) ?
MARV entry inh: -27%[46.1 µM]; Cruzain Triton: -7.3%; 2A StopGo: -13%; Cruzain inh noDet: -2%; LASV entry inh: -11%[46.1 µM]

Results for CN(C(=O)CCNC(=O)N1CC(=O)Nc2ccccc21)C1CCCCC1 ?
SARS PLpro yeast: 1%; MARV entry inh: 2%[46.1 µM]; NS1 inh: -2%; 2A StopGo: -9%; RE007 growth inh: 7%; LASV entry inh: 3%[46.1 µM]

Results for Cc1nc(CN2CCN(Cc3nc(C(c4ccccc4)c4ccccc4)no3)CC2)cs1 ?
SARS PLpro yeast: -1%; MARV entry inh: -7%[46.1 µM]; NS1 inh: 2%; 2A StopGo: -24%; RE007 growth inh: -8%; LASV entry inh: 5%

What do the screens show for `CCCCCN1C(C(=O)c2ccccc2)=C(OC(=O)CC)c2ccccc2S1(=O)=O`?
MARV entry inh: inconclusive; Cruzain Triton: -7.6%; 2A StopGo: -1%; Cruzain inh noDet: -15%; LASV entry inh: inconclusive

What do the screens show for `CCn1nc(CC(=O)Nc2ccc(-n3cnnn3)c(C)c2)c2ccccc2c1=O`?
SARS PLpro yeast: -19%; MARV entry inh: inconclusive; NS1 inh: -7%; Cruzain Triton: 1.6%; 2A StopGo: -2%; RE007 growth inh: 8%; Cruzain inh noDet: 8%; LASV entry inh: -2%

What do the screens show for `O=[N+]([O-])c1ccc(CN2CCC(Cc3ccccc3)CC2)cc1`?
SARS PLpro yeast: -1%; NS1 inh: -12%; 2A StopGo: -11%; RE007 growth inh: -1%
